# HPGD block – blocks human HPGD enzyme activity. purified HPGD, NADH fluorescence kinetic, PGE2 substrate. Potency, µM, for inactives: at the highest dose activity change, negative = inhibition, hits mostly inhibitors. 150,000 compounds, 4.3% hits; active = well fitted inhibition curve with a large enough effect (not every such curve was filed as active); inconclusive = small, poorly fitted or top-dose-only effect, or another doubt; inactive = no such curve, though single readings can be large or run the other way;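 also: top concentration of the series not given in the record; plate controls included wells without enzyme; inactives centre near -10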
# Target sequence (P15428 whole entry, looked up): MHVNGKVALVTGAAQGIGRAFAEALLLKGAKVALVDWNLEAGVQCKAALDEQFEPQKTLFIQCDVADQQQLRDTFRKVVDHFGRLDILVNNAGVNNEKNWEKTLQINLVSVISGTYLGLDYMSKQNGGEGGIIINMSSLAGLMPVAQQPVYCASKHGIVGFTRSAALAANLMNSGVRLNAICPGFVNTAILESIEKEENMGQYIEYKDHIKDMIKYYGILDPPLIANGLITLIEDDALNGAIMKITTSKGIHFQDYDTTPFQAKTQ
#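 20 nM HPGD preincubated 15 min at room temperature with compound in 50 mM Tris-HCl pH 8, 0.01% Tween 20. Started with 1 mM NAD+ and 30 uM prostaglandin E2; NADH fluorescence (360/450 nm) read 5 times over 30-s intervals, last minus first.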
# * hit, by the source's call; u = inconclusive; & = joins results of further samples. % is scaled to controls: 0 for no effect and ±100 for the full control effect; potency is read from the fitted curve at half-maximal effect. An excerpt; rates above refer to the full screens.
No.	compound	HPGD block
1	Fc1ccccc1CNc1ccc(Cl)cc1	-21%
2	O=C1CCCC2=C1C1(CCCCC1)N=C(Nc1nc3ccccc3o1)N2	-16%
3	CNc1nc(-c2ccccn2)nnc1-c1ccccc1	-10%
4	O=[N+]([O-])c1cccnc1-n1cnc2ccccc21	-23%
5	S=C(Nc1cccnc1)NC1CCCC1	-4%
6	Cc1cccc(-c2noc(C3CCCCC3)n2)c1	-16%
7	C=CCCCOc1ccc(C(=O)O)cc1	-21%
8	COC(=O)C1=C(C)N(CCc2ccccc2)C(=O)C1(NS(=O)(=O)c1ccc(NC(C)=O)cc1)C(F)(F)F (configuration not stated)	-17%
9	O=C1C2C3C=CC(CC3)C2C(=O)N1/N=C/c1ccccc1O (configuration not stated)	-14%
10	CCOC(=O)N1CCC(NC(=O)CCCN2C(=O)CSc3ncccc32)CC1	2%
11	CC(C)=C1C2C=CC1C(C(=O)Nc1cc(C)ccc1C)C2C(=O)O (configuration not stated)	-2%
12	COc1cccc(Sc2ccccc2CN(C)C)c1	-8%
13	COc1ccc(OCCn2cc(/C=N/NC(=O)c3ccncc3)c3ccccc32)cc1	-20%
14	Cc1cc(C)cc(NC(=O)CSc2nnc(-c3ccccc3C)o2)c1	-13%
15	N#CC(=NCCO)C1=C(O)c2ccccc2C1=O	-3%
16	COc1cc(S(=O)(=O)N(Cc2ccccn2)Cc2ccco2)ccc1-n1cnnn1	-14%
17	O=C(Cn1cc(C(F)(F)F)ccc1=O)N/N=C/c1ccc(Cl)cc1	-4%
18	Cc1cc(C)c2c(c1)/C(=C/C(=O)c1ccc(Br)s1)C(=O)N2	-13%
19	Cc1cc(NC(=O)c2ccc(N(C)S(=O)(=O)c3ccccc3)cc2)no1	0%
20	CC(C)CC(c1nnnn1Cc1ccco1)N1CCN(c2cccc(Cl)c2)CC1 (configuration not stated)	-26%
21	COc1ccccc1N1CCN(C(=O)C(Cc2ccccc2)NC(=O)C2CCCCC2)CC1 (configuration not stated)	-1%
22	CCN(CC)CC(=O)NCc1cc(-c2ccc(OC)cc2)no1	1.3µM*
23	COc1ccc2[nH]cc(C(=O)CNc3nc(C)cs3)c2c1	-4%
24	CCOC(=O)CCc1c(C)nc2ncnn2c1C	-18%
25	COc1ccccc1N(CC(=O)NCc1ccccc1)C(=O)CCC(=O)Nc1cc(C)ccn1	-1%

# In the list so far, these have sulfur:
No.	compound	HPGD block
5	S=C(Nc1cccnc1)NC1CCCC1	-4%
8	COC(=O)C1=C(C)N(CCc2ccccc2)C(=O)C1(NS(=O)(=O)c1ccc(NC(C)=O)cc1)C(F)(F)F (configuration not stated)	-17%
10	CCOC(=O)N1CCC(NC(=O)CCCN2C(=O)CSc3ncccc32)CC1	2%
12	COc1cccc(Sc2ccccc2CN(C)C)c1	-8%
14	Cc1cc(C)cc(NC(=O)CSc2nnc(-c3ccccc3C)o2)c1	-13%
16	COc1cc(S(=O)(=O)N(Cc2ccccn2)Cc2ccco2)ccc1-n1cnnn1	-14%
18	Cc1cc(C)c2c(c1)/C(=C/C(=O)c1ccc(Br)s1)C(=O)N2	-13%
19	Cc1cc(NC(=O)c2ccc(N(C)S(=O)(=O)c3ccccc3)cc2)no1	0%
23	COc1ccc2[nH]cc(C(=O)CNc3nc(C)cs3)c2c1	-4%

# (further entries)
No.	compound	HPGD block
26	COc1ccc2[nH]cc(CCNc3nc(-c4cccc(NS(C)(=O)=O)c4)nc4ccccc34)c2c1	-12%
27	Cc1ccc(NC(=O)CSc2nnc(-c3ccccc3Br)o2)cc1C	-16%
28	O=C(CSc1nnc(CNC(=O)c2cccs2)o1)NC1CCCC1	-19%
29	Cc1ccc(C(NC(=O)C(C)C)c2cc([N+](=O)[O-])c3cccnc3c2O)cc1 (configuration not stated)	-15%
30	Cc1ccc(NC(=O)Cn2c(=O)oc3cc(S(=O)(=O)N4CCC(C)CC4)ccc32)cc1C	-13%
31	CC(=O)c1c(C)nc(-c2ccccc2)n1O	-13%
32	Cc1cc(OCc2ccc(F)cc2)nc(-c2ccccc2O)n1	-13%
33	CC(CC(=O)NC1CCSC1=O)c1ccccc1 (configuration not stated)	-14%
34	COC(=O)c1c(-c2ccc(Br)cc2)csc1NC(=O)Cc1ccc(OC)c(OC)c1	-25%
35	Nc1sc2c(c1C(=O)NC1CCS(=O)(=O)C1)CCC2 (configuration not stated)	-24%
36	COc1cccc(NC(=O)CSc2ccc3nnc(-c4ccncc4)n3n2)c1	u
37	COc1cccc(N(C(=O)c2ccco2)C(C(=O)NC2CCCC2)c2ccc(N(C)C)cc2)c1 (configuration not stated)	-17%
38	COc1cccc(-c2nnc(NC(=O)c3ccc(S(=O)(=O)N(CC(C)C)CC(C)C)cc3)o2)c1	u
39	Cc1cc(C)nc(SCC(=O)Nc2ccc(S(=O)(=O)Nc3nccs3)cc2)n1	-19%
40	CC(=O)c1cccc(NC(=O)c2onc(C)c2Cl)c1	-16%
41	COc1ccc(NC(=O)CC2SC(=Nc3ccccc3)NC2=O)cc1 (configuration not stated)	-12%
42	O=c1c2c3n(c(=O)nc2[nH]n1-c1ccccc1)CCCCC3	-2%
43	Cc1ccc(NC(=S)N/C(=N/S(=O)(=O)c2ccccc2)c2ccccc2)cc1	u
44	Cc1nn(C)cc1C(=O)NNC(=S)Nc1ccccc1	-1%
45	COc1ccc(S(N)(=O)=O)cc1C(=O)NCCCN1CCN(c2ccccc2OC)CC1	0%
46	COc1ccccc1C(=O)N1CCCC1(C#N)c1ccccc1 (configuration not stated)	3%
47	O=C(Nc1cccn(Cc2c(Cl)cccc2Cl)c1=O)c1ccc(Cl)cc1Cl	u
48	C=CCNC(=O)C1CC(=O)N(c2ccc(OCC(=O)Nc3ccc(Cl)c(C(F)(F)F)c3)cc2)C1 (configuration not stated)	-3%
49	CC1=C(C(=O)OCc2ccc3c(c2)OCO3)C(c2ccccc2OCc2ccccc2)NC(=O)N1 (configuration not stated)	-19%
50	COc1ccc(N(CC(=O)Nc2ccc(S(=O)(=O)N3CCCC3)cc2)S(C)(=O)=O)cc1OC	2%

# The list goes on.
No.	compound	HPGD block
51	CCn1c2ccccc2c2cc(NC(=O)CC(C)=O)ccc21	-10%
52	CCOc1cc(C2C3=C(CCCC3=O)N(CCC(=O)O)C3=C2C(=O)CCC3)ccc1OS(=O)(=O)c1ccc(C)cc1	u
53	COc1ccc(NC(=O)CC(Cc2ccccc2)C(=O)O)cc1 (configuration not stated)	4%
54	CNC(=O)N(C1=NCC(C)S1)c1ccc(F)cc1F (configuration not stated)	-14%
55	CC(C)=CCCC(C)CN1CCC(O)CC1 (configuration not stated)	-2%
56	NC(=O)c1ccc[n+](Cc2cccc3ccccc23)c1	-6%
57	Cc1ccc(Cl)cc1Nc1nc(-c2sc(NC(=O)C(C)(C)C)nc2C)cs1	-10%
58	O=S(=O)(O)[C@@H](CO)c1ccccc1 (tested in a mixture with another compound)	-4%
59	O=C(COC(=O)c1cccc(S(=O)(=O)N2CCOCC2)c1)Nc1ccc2c(c1)OCO2	-5%
60	COc1ccc(Nc2nc(-c3cccs3)cs2)cc1	-26%
61	Cc1ccc(OCCNC(=O)Cn2cnc3c(=O)n(C)c(=O)n(C)c32)cc1C	-9%
62	O=C(CN(C(=O)C1COc2ccccc2O1)c1ccccc1)NCC1CCCO1 (configuration not stated)	-1%
63	C[C@H]1Cc2c(-c3ccccc3)nc3c(c2CO1)CN(C(=O)Nc1cccc(C#N)c1)CC3	-2%
64	O=C(/C=C/Nc1ccc(S(=O)(=O)Nc2ncccn2)cc1)c1ccc(Cl)c(Cl)c1	-26%
65	COc1cc(C)c(C)cc1S(=O)(=O)N1CCCCC1c1cccnc1 (configuration not stated)	1%
66	COc1cc2nc(CN(CCC(C)C)Cc3nc4cc(OC)c(OC)cc4c(=O)[nH]3)[nH]c(=O)c2cc1OC	-14%
67	COc1ccc(CC(=O)Nc2cccc(SC)c2)cc1	-9%
68	O=C(Nc1cccc(O)c1)c1ccccc1	-16%
69	O=C(CC1C(=O)NCCN1C(=O)Nc1ccccc1)Nc1cccc(C(F)(F)F)c1 (configuration not stated)	1%
70	O=c1cc(O)c2c(=O)n(-c3ccccc3)c3c(c2o1)CCCCCC3	-28%
71	Cc1ccc(NC(=O)CC(O)(C(F)(F)F)C(F)(F)F)c(Br)c1	-14%
72	CCc1nc(SCC(=O)NNC(=O)C2CCCCC2)c2ccccc2n1	-17%
73	COC(=O)[C@@]1(Cc2ccc(OC)cc2)[C@H]2c3cc(C(=O)N(C)C)n(Cc4ccc(C)o4)c3C[C@H]2CN1C(=O)c1ccccc1	25µM*
74	Cc1ccc(N2C(=O)CC(N(O)C3CC(=O)N(c4ccc(C)cc4)C3=O)C2=O)cc1 (configuration not stated)	32µM*
75	COC(=O)CSC1=C(C#N)C(c2ccc(C)cc2)C2=C(CCCC2=O)N1 (configuration not stated)	-16%

# (further entries)
entry | Compound | HPGD block
76 | C=CCn1c(CCNC(=O)c2cccs2)nnc1SCC(=O)Nc1cccc(Cl)c1C | -20%
77 | COc1cc(/C=N/NC(=O)C[n+]2ccccc2)cc(OC)c1OC | -2%
78 | CC1(C)CSC(=NCCc2ccccc2)N1C(=O)c1ccc(C#N)cc1 | 0%
79 | Cc1ccc(C2CC(=O)Oc3cc(O)ccc32)cc1 (configuration not stated) | -13%&-10%
80 | O=C(CSC1=Nc2ccccc2C2=NC(CC(=O)NCc3ccco3)C(=O)N12)NCc1ccco1 (configuration not stated) | -22%
81 | CCOC(=O)N1CCC(NC(=O)C2CCCN(S(C)(=O)=O)C2)CC1 (configuration not stated) | 2%
82 | COc1ccccc1C1C=C(c2ccccc2)Nc2nnnn21 (configuration not stated) | -4%
83 | CCOC(=O)c1cc(C#N)c(SCC(=O)c2cc(C#N)c(SC)nc2C)[nH]c1=O | 1.4µM*
84 | O=C1c2ccccc2C(=O)N1CCc1ccccn1 | 2%
85 | Cc1ccnc(NC(=O)CCC(=O)N(CC(=O)NC2CCCCC2)c2ccc3c(c2)OCO3)c1 | -14%

# Reprinted: compounds 76–77
entry | Compound | HPGD block
76 | C=CCn1c(CCNC(=O)c2cccs2)nnc1SCC(=O)Nc1cccc(Cl)c1C | -20%
77 | COc1cc(/C=N/NC(=O)C[n+]2ccccc2)cc(OC)c1OC | -2%

# The results go on.
entry | Compound | HPGD block
86 | Cc1ccc([N+](=O)[O-])cc1NC1OC(CO)C(O)C1O (configuration not stated) | -3%
87 | CCN(CC)C(=O)/C(=C/c1ccc(F)cc1)NC(C)=O | -3%
88 | O=C(Cc1ccc([N+](=O)[O-])cc1)Nc1ccc(O)cc1C(=O)O | -14%
89 | CC1=CN2C(=N)/C(=C/c3ccc(Sc4ccc(Cl)cc4)o3)C(=O)N=C2S1 | -18%
90 | CCOC(=O)C1=C(c2ccccc2)c2cc(OC)ccc2OC1C(=O)OCC (configuration not stated) | -10%
91 | COc1cccc(-n2nnnc2SCC(=O)Nc2cccc(NC(C)=O)c2)c1 | -21%
92 | O=Cc1cn(CC(=O)N2CCCCC2)c2ccccc12 | -12%
93 | O=C(NCCOc1ccccc1)c1ncn[nH]1 | -5%
94 | O=[N+]([O-])c1cc(-c2cnc3ccccc3n2)ccc1Oc1ccc(Cl)cc1 | u
95 | COc1ccc2[nH]cc(C3N4CC5(C)CN3CC(C)(C4)C5=O)c2c1 (configuration not stated) | -3%

# Carrying on.
entry | Compound | HPGD block
96 | COC(=O)C(C(=O)OC)C(C[N+](=O)[O-])c1ccc(OC)c(OC)c1 (configuration not stated) | 1%
97 | COC(=O)c1c(NC(=O)CN2CCOCC2)sc2c1CCC(C)C2 (configuration not stated) | -18%
98 | NS(=O)(=O)c1cccnc1Nc1cccc(Cl)c1Cl | -22%
99 | CC(C)C(=O)Nc1ccc(C(=O)NNC(=O)C(c2ccccc2)c2ccccc2)cc1 | 0%
100 | COc1ccccc1/C=C/C=N/n1c(COc2ccccc2)n[nH]c1=S | u
101 | COc1ccc(CCN2CCCn3c2nc2c3c(=O)n(Cc3ccccc3F)c(=O)n2C)cc1OC | u
102 | CCc1cc2c(-n3nc(C)cc3C)ncnc2s1 | -18%
103 | O=C(O)CSCc1c(F)cccc1Cl | -15%
104 | Cc1cccnc1NC(=O)CSc1nnc(COc2ccc(C(C)C)cc2)n1C | -5%
105 | O=C(NC(=S)Nc1cccc(NC(=O)c2ccccc2Cl)c1)c1cccs1 | -9%

# The listing continues:
entry | Compound | HPGD block
106 | Cc1ccccc1OCCSc1nc(N(C)C)nc(N(C)C)n1 | -14%
107 | O=C(CSc1nnc(-c2ccco2)n1-c1ccccc1)NCc1ccc2c(c1)OCO2 | -9%
108 | CCOC(=O)c1sc(NC(=O)CN2C(=O)c3cccc4cccc(c34)C2=O)nc1C | -13%
109 | O=C1CNCc2[nH]c3ccccc3c2N1c1ccccc1 | -4%
110 | COc1ccc(C(C(=O)NC2CCCCC2)N(C(=O)c2sc(C)nc2C)c2ccccc2C)cc1 (configuration not stated) | -10%
111 | CCN1C(=O)/C(=C\c2cccs2)C(C(=O)OC)=C1C | -19%
112 | CCCC(=O)n1nc(-c2ccco2)nc1SCc1ccccc1 | u
113 | CCOC(=O)c1ccc(NC(=O)c2ccc3c(c2)OCO3)cc1 | -4%
114 | CCc1ccc2c(c1)C(c1ccc([N+](=O)[O-])cc1)=NNC(c1ccc(F)cc1)=N2 | -8%
115 | CCn1c(N)c(C(=O)NCc2cccnc2)sc1=S | -6%
116 | Cc1cc(C(=O)C(=O)NC(C)C)c(C)n1-c1ccc([N+](=O)[O-])cc1 | -12%

# Screening results (PubChem BioAssay)
